ClpP mod: qHTS Assay for Activators of ClpP | ATP-dependent Clp protease proteolytic subunit (Bacillus subtilis (strain 168)), P80244 | purified B. subtilis ClpP, FRET peptide cleavage, 20 min | Potency, µM (top dose mostly 57.5 µM), for the others: top-dose activity change, negative = active | 1.9% of 340,000 active | AID 651965, 2013; active = well fitted falling curve with a large enough effect; inconclusive = small, poorly fitted or top-dose-only effect; inactive = no such curve, though single readings can be large or run the other way; also: potency is read from the fitted curve at half-maximal effect; the source files actives as falling curves though it sought activators and does not explain the sign; nearly all actives have a fitted effect of over 65% in size; many hits overshoot -100%
Target sequence (P80244 whole entry, looked up): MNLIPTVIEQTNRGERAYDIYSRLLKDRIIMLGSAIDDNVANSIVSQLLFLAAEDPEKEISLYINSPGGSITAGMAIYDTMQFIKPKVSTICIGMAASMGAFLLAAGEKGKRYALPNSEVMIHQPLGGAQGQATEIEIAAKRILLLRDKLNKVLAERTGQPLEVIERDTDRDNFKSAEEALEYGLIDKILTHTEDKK
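Buffer: 100 mM Tris/HCl pH8, 100 mM KCl, 0.05% low protease BSA, 2.5% glycerol, 0.01% Tween-20. ClpP 10 microg/mL final; 20 min RT; delta FRET normalized to ADEP and DMSO controls.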
Sfp PPTase inh: inhibitors of Bacillus subtilis Sfp phosphopantetheinyl transferase | Q9F4F7 | Biochemical Sfp PPTase activity, qHTS | Potency, µM, for the others: max response, negative = inhibition, usual class: inhibitors | 3.5% of 310,000 active; active = well fitted inhibition curve with a large enough effect; inconclusive = small, poorly fitted or top-dose-only effect, or another doubt; inactive = no such curve, though single readings can be large or run the other way;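 also: the enzyme is Sfp with the accession as filed and its product quenches rhodamine fluorescence; potency is read from the fitted curve at half-maximal effect; 0% = enzyme reaction without inhibitor and -100% = no enzyme wells; top concentration of the series not given in the record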
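Step 1, compound plus 15 nM Sfp-PPTase, 15 min, room temperature. Step 2, add rhodamine-CoA (5 uM) and BHQ-2-YbbR (12.5 uM). Step 3, read 525/598 nm fluorescence at 0 and 30 min.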
Menin MLL FP FL: displaces fluorescein MLL peptide from human menin; 290,000 tested, under 10 active; FP activity change, % at 61.4 µM; Fluorescence polarization, fluorescein-MLL peptide displacement from menin; AID 1766; inconclusive = falling polarisation curve, or a change in total fluorescence; inactive = total fluorescence flat and polarisation flat or rising; no compound was filed as active; the % refers to the polarisation; negative = inhibition;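 also: % of control where 0% means no effect; inhibitors lower the polarisation; unlabelled MLL peptide was the positive control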
TRPV1 potentiator: potentiators of human vanilloid receptor 1 (TRPV1); Q8NER1; TRPV1-expressing cells, Fluo-8 calcium influx, capsaicin EC20 potentiation; host cell line not named in the record; control for the full effect not named in the record; potentiation, % at 8.33 µM; 0.02% of 320,000 active; active means potentiation above 80%; inconclusive means 30% to 80%; inactive means below 30%; also: 0% is about no effect
Target sequence (Q8NER1 whole entry, looked up): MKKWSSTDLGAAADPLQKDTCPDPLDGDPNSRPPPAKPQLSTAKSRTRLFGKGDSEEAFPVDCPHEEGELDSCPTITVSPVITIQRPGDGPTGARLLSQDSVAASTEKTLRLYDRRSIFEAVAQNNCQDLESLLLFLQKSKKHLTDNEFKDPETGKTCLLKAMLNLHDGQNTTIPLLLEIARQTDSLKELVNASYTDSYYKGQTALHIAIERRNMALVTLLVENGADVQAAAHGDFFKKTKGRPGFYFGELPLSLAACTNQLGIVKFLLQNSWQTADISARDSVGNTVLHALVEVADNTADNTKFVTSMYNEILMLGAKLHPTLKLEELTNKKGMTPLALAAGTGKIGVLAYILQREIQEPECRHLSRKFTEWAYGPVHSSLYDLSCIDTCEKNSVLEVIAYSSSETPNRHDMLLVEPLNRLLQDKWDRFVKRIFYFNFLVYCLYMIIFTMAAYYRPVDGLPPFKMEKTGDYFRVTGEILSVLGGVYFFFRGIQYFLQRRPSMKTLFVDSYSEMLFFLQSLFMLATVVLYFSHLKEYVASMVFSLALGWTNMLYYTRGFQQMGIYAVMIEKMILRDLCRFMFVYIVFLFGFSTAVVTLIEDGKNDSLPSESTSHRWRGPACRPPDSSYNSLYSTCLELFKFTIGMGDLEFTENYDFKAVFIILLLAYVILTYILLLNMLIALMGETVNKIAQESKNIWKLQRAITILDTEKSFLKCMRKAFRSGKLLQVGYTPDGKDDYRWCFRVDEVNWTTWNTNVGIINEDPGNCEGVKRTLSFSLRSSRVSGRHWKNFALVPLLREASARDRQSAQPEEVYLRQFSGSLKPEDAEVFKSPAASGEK
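Cells expressing TRPV1 were dye-loaded with Fluo-8 and read kinetically: 10 s baseline, 3 min after compound (agonist portion), then 2 min after EC20 capsaicin (allosteric enhancer portion). Calcium-bound dye fluorescence at 480/520 nm.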
TRPML1 ag: agonists of human TRPML1 channel; TRPML1-expressing cells, Ca2+ dye fluorescence, FDSS; host cell line not named in the record; reference of the full effect not given here; Q9GZU1; AID 624414; activation, % (test concentration not listed); 0.12% of 410,000 active; in the data active = activation above about 50%; inconclusive = about 30% to 50%; inactive = below about 30%; also: 0% is about no effect; the text of the record puts the active cut at 80%
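TRPML1-DL cells, Tet-induced overnight (~16 h, 37 degrees C), loaded 45-90 min at room temperature with Ca8 no-wash calcium dye plus quencher. FDSS fluorescence: 10 s baseline, compound pin-transfer, 110 s agonist read, then EC80 54-4 (4uM final) and 110 s antagonist read.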
TRPML1 blocker: inhibitors of human TRPML1 channel; TRPML1-inducible cells, Ca2+ dye fluorescence, FDSS; hits give low values; inhibition of EC80 agonist-evoked calcium signal; activity change, negative = inhibition, % (test concentration not listed); Q9GZU1; 0.02% of 390,000 active; in the data active means activity change below about -50%; inconclusive means about -30% to -50%; inactive means above about -30%;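 also: stimulus is agonist 54-4 at its EC80 concentration; % is scaled to controls: 0 for no effect and ±100 for the full control effect; compound concentration not given in the record; the text of the record puts the active cut at -80%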
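Calcium fluorescence in TRPML1-DL cells induced overnight with Tet: a 110 s read after compound pin addition, then a 110 s antagonist read after challenge with 54-4 at 4 uM final (EC80).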
PINK1 expr mod: modulators of PINK1 expression | 0.2% of 410,000 active | AID 624263 | Potency, µM (series often up to 76.6 µM), inactives show at the top dose activation (PINK1 increase), most hits filed as activators | PINK1 immunofluorescence, high-content cytometry, 24 h; active = well fitted activation curve with a large enough effect; inconclusive = small, poorly fitted or top-dose-only effect; inactive = flat fitted curve, though single readings scatter; cell line not stated here;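 also: potency is read from the fitted curve at half-maximal effect; % of control where 0% means no effect; nearly all actives have a fitted effect of over 65% in size; a mitochondrial uncoupler was the plate control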
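PINK1 protein, normally rapidly degraded, was detected by immunofluorescence after 24 hour compound treatment of a stable cell line. Titration data (5 concentrations) came from laser-scanning cytometry, with CCCP-treated wells as controls.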
Numbers without * were called inactive; ? = inconclusive; nt = no result given; [ ] = another dose, or the depositor's remark. No enrichment for hits (roughly 4.4% active in at least one column).

SMILES	ClpP mod	Sfp PPTase inh	Menin MLL FP FL	TRPV1 potentiator	TRPML1 ag	TRPML1 blocker	PINK1 expr mod
Cc1ccccc1NC(=O)Cn1cccc1	0.9%	5%	1.9	4	0.6	1	3.8%[38.3 µM]
Cc1ccnc(NC(=O)c2ccc(Cl)cc2Cl)n1	nt	-7%	4.4	4	nt	nt	nt
Cc1ccc(/C=N/NC(=O)c2c[nH]c3ccccc23)s1	-2.3%	-5%	1.8	-22	-0.9	-8	-1.0%
Cc1ccc(CNCC(=O)Nc2ccc(C)cc2Br)cc1	0.0%	-5%	-0.4	-2	-0.8	6	3.9%
CC(C)N(C)c1ncnc2c1ncn2[C@H]1CN(Cc2ccc(-c3ccccc3)cc2)C[C@@H](CO)O1	-0.2%	nt	nt	nt	-0.3	nt	9.6%
Cc1cccc(N(C)C(=O)CN(C)S(=O)(=O)c2ccc3[nH]c4c(c3c2)CCCC4)c1	-15%	nt	nt	nt	1.6	-1	0.3%
COc1cccc(NC(=O)CN(C)C(=O)c2ccc(NC(=O)CC3SC(N4CCCC4)=NC3=O)cc2)c1 (stereo not drawn)	1.8%	nt	nt	nt	1.4	9	0.4%
O=C(O)c1cc(NCc2ccccc2)ccc1N1CCOCC1	-3.4%	11%	2.3	11	-0.5	4	2.5%
COc1ccc(S(=O)(=O)Nc2cc3c(cc2NCc2ccccc2)n(C)c(=O)n3C)cc1OC	51%	nt	nt	nt	-0.2	-1	-0.1%
Cc1nc(-n2nc(C)c(Cc3ccccc3Cl)c2C)sc1C(=O)N1CCC(C)CC1	0.1%	nt	nt	nt	-0.2	12	0.5%
Cc1nn(C)cc1/C=N/NC(=O)c1ccco1	nt	13%	4.3	13	0.5	-13	-0.2%
COc1c(C)cc(S(=O)(=O)NCCN2CCOCC2)c(C)c1C	nt	15%	-4.6	16	-0.6	20	2.9%
CN(C1CCS(=O)(=O)C1)S(=O)(=O)c1ccccc1 (stereo not drawn)	nt	11µM*	4.4	13	0.9	12	-1.2%
COc1ccc(Br)cc1[C@H]1[C@H]2C=CC[C@@H](C)[C@@H]2C(=O)N1Cc1ccccc1	-2.9%	?	-7.3	-4	0.7	37	-1.0%
COC(=O)c1cc(=O)nc(NN=Cc2ccc(C)cc2)s1	2.1%	nt	nt	nt	-0.5	nt	1.2%
COC(=O)c1ccsc1-n1cc(C#N)c(=O)n(C)c1=O	1.5%	13%	-9.2	9	0.6	0	2.6%
CCOC(=O)c1c(NC(=S)N2CCOCC2)sc(C)c1C	0.1%	13%	-0.5	-12	1.0	-22	4.3%
CCOC(=O)Cc1nn[nH]n1	nt	?	0.2	-6	-0.3	2	3.2%
COc1ccc(-c2coc3cc(O)cc(O)c3c2=O)cc1OC	nt	6%	3.2	-4	-0.5	16	2.8%
NC(=O)c1ccc(N=C2C(=O)Nc3ccc([N+](=O)[O-])cc32)cc1	0.8%	-10%	1.7	-15	1.4	-9	-1.1%
CC1CCN(C(=O)COC(=O)c2cccc(S(=O)(=O)N3CCOCC3)c2)CC1	2.6%	nt	nt	nt	0.4	17	1.8%
O=C(NC1CCCCC1)C1CCN(S(=O)(=O)c2cccs2)CC1	-0.6%	-22%	-0.1	-19	-0.2	5	-0.9%
Cc1ccccc1NC(=O)C1CCN(C(=O)c2cnn(-c3ccccc3)c2-n2cccc2)CC1	-3.3%	nt	nt	nt	-0.5	-10	-0.5%
Cc1ccn2c(NC(=O)C(C)(C)Oc3ccc(Cl)cc3)c(-c3cccs3)nc2c1	32µM*	-6%	6.7	0	3.2	0	2.0%
Cc1nc([N+](=O)[O-])c(C(=O)OCc2cccc(Br)c2)n1C	nt	-1%	-1.7	11	-0.8	19	0.4%
O=C(Cc1cccc2ccccc12)NCC1CCCO1 (stereo not drawn)	0.9%	9%	0.4	25	3.5	7	-1.7%
CCOC(=O)C1CCCN(C(=O)c2ccc3c(c2)N(Cc2ccccc2)C(=O)c2ccccc2S3(=O)=O)C1 (stereo not drawn)	2.8%	nt	nt	nt	0.5	-5	-0.1%
COc1ccc(C(=O)NCCSCc2ccccc2)cc1OC	nt	12%	-2.1	11	1.3	-9	2.3%
COc1cccc(C(=O)N/N=C(\C)c2ccc(NC(=O)Cc3ccccc3)cc2)c1OC	2.8%	15%	-1.8	25	0.6	-16	1.0%
CCCc1ccc(OCc2ccc(C(=O)N/N=C/c3cccnc3)o2)cc1	15%	-3%	nt	-17	0.6	30	6.3%
CC1Oc2ccccc2OC1C(=O)Nc1ccccn1 (stereo not drawn)	0.4%	15%	2.7	-5	3.3	13	-0.7%
CCN(C(=O)COC(=O)/C=C/c1cccc(Cl)c1)c1c(N)n(Cc2ccccc2)c(=O)[nH]c1=O	1.1%	nt	nt	0	-0.7	9	6.5%
CCC(C)NC(=O)c1cc2n(n1)CCCN(Cc1ccc(C)cc1)C2=O (stereo not drawn)	-9.4%	nt	nt	nt	-0.2	30	0.3%
CC(CNC(=O)CCS(=O)(=O)c1ccc2c(c1)NC(=O)CO2)c1ccccc1 (stereo not drawn)	-0.6%	17%	nt	-12	-0.1	12	1.3%
COc1ccccc1-c1noc(CCC(=O)Nc2cc(C(F)(F)F)ccc2Cl)n1	0.7%	18µM*	2.1	7	0.7	-2	4.5%[38.3 µM]
Cc1cc(NC(=O)CSc2nc3ccsc3c(=O)n2CCCCC(=O)O)no1	-1.1%	20%	-1.3	1	-0.3	4	2.6%[38.3 µM]
Oc1ccc(C[C@@H]2CNCCN2CCCCC2CCCCC2)cc1	-1.9%	nt	nt	-22	-0.2	-3	7.0%
CCOC(=O)n1c(=O)[nH]c2ccc(Br)cc21	nt	-6%	-1.0	-9	-0.9	-9	-1.0%
CCOC(=O)c1ccc(-c2cc(C)no2)[nH]1	-7.4%	12%	4.0	-2	1.4	38	7.6%
CCN(CC)CCCC(C)Nc1nccc2cccc(Cl)c12 (stereo not drawn)	nt	nt	nt	nt	-0.2	0	-3.8%
CCOc1ncnc2c1sc1nc3c(cc12)COC(C)(C)C3	-3.5%	nt	nt	nt	0.0	4	1.3%
CCN(C(=O)COc1cc(=O)n(C)c2ccccc12)c1cccc(Cl)c1	-6.6%	10%	1.8	nt	1.3	13	nt
Cc1ccc2nc(SCC(=O)NCc3ccc(F)cc3)nc(=O)n2c1	?	nt	nt	-1	0.0	8	-1.9%
O=C(/C=C/c1cccc(F)c1)Nc1ccc(S(=O)(=O)N2CCOCC2)cc1	-0.3%	nt	nt	nt	-0.1	-11	5.3%
COc1cccc(C2=NOC(C(=O)Nc3cc(OC)c(OC)c(OC)c3)C2)c1 (stereo not drawn)	1.2%	3%	1.6	17	-0.5	-6	7.3%[38.3 µM]
CCC1(CC)Nc2ccccc2C(=O)N1c1ccc(OC)cc1	3.7%	7%	4.6	2	0.1	0	0.0%
Cc1ccc2c(=O)cc(C(=O)Nc3ccc(S(=O)(=O)N4CCCCC4C)cc3)oc2c1C (stereo not drawn)	-2.2%	nt	nt	nt	0.7	6	4.3%
COc1ccc(NC(=O)c2c(F)cccc2Cl)cc1S(=O)(=O)N1CCOCC1	1.8%	nt	nt	nt	0.3	10	5.6%
COc1cccc2[nH]c3c(N4CCC(C)CC4)ncnc3c12	14µM*	-8%	0.9	-8	-0.4	-1	7.1%[38.3 µM]
COc1ccc(-n2c(SCC(C)=O)nc3sc(C)c(C)c3c2=O)cc1	3.1%	3%	2.0	-22	-0.8	1	7.2%
COc1cc(C=CC(=O)N2CCN(CC(=O)N3CCCC3)CC2)cc(OC)c1OC	4.2%	nt	nt	nt	-0.1	7	-0.7%
Cc1ccc2oc(=O)c3cc(C(=O)NCc4ccc(Cl)cc4)sc3c2c1	-12%	nt	nt	nt	-0.6	-20	-0.1%
COc1ccccc1NC(=O)CSc1nnc2c3ccccc3n(C)c2n1	1.8%	nt	nt	nt	-0.7	2	1.1%
O=c1cc(-c2ccccc2)nc(Sc2ccc([N+](=O)[O-])cc2[N+](=O)[O-])[nH]1	nt	nt	nt	nt	1.8	-4	8.4%
CCCS(=O)(=O)c1nc(S(=O)(=O)c2ccc(C)cc2)c(NCc2ccccn2)s1	0.3%	-4%	3.6	-7	2.7	0	2.9%
OCC1OC(Nc2ccccc2C=NO)C(O)C1O (stereo not drawn)	-12%	nt	nt	nt	-0.3	-19	1.9%
Cc1[nH]nc(SCC(=O)N2CCCCCC2)c1[N+](=O)[O-]	nt	5%	-4.6	-4	-0.9	-22	-1.0%
CC1CCCN(C(=O)CN2C(=O)CSc3ccc(S(=O)(=O)N4CCOCC4)cc32)C1 (stereo not drawn)	-2.7%	1%	-1.2	-2	0.5	-18	-0.1%
CN(Cc1c(F)cccc1Cl)c1nnnn1-c1ccccc1	-2.4%	-4%	-1.6	-16	-0.4	5	0.5%
Cc1nc(SCc2ccccc2F)c2oc3ccccc3c2n1	nt	79µM*	-2.5	6	3.5	-4	5.3%

(more compounds)
SMILES	ClpP mod	Sfp PPTase inh	Menin MLL FP FL	TRPV1 potentiator	TRPML1 ag	TRPML1 blocker	PINK1 expr mod
Cn1c(C(=O)NCCN2CCc3ccccc3C2)cc2c(=O)[nH]c3ccccc3c21	-27%	17%	3.7	16	0.7	18	-0.7%
CCn1c(=O)cc(C(=O)OC)sc1=Nc1ccc(F)c(F)c1	0.2%	-17%	3.7	-16	2.0	3	0.3%
Cc1ccc(N2CC(NC(=O)Cc3cccs3)CC2=O)cc1 (stereo not drawn)	-0.3%	nt	nt	nt	-1.2	-8	-0.4%
COc1ccccc1Nc1nc(N)nc(CSC(=S)N2CCCCC2C)n1 (stereo not drawn)	-1.2%	10%	17	1	1.4	-1	-2.1%
CCC1=C(c2ccc(C)cc2)S(=O)(=O)N=C1N1CCC(C(=O)NCCCN2CCCCC2)CC1	0.2%	8%	7.0	-1	-0.9	1	0.0%
CCN(CC)CCNC(=O)Cn1c(=O)c2cccn2c2ccc(F)cc21	0.2%	7%	-4.7	-9	-0.6	-14	-1.5%
CCc1nc2c(OCCOc3ccc(F)cc3)cccn2c1N(C)C(=O)CC(C)C	-2.5%	nt	nt	nt	-1.0	nt	5.3%
Cc1c(C(=O)Nc2ccccn2)oc2c(Cl)cccc12	18%	nt	nt	-13	1.1	-6	1.5%
CCOC(=O)c1cc(C)n(CC2CCC(C(=O)Nc3cccc(C)c3)CC2)c1C (stereo not drawn)	-0.2%	nt	nt	nt	0.3	-9	1.5%

Bioassay records (PubChem)
